# HCMV UL50-53 inh – disrupts HCMV UL50-UL53 complex binding; HTRF UL50-UL53 interaction, normalized percent inhibition; actives 0.15% (n = 190,000); AID 1918969; inhibition, % (concentration not given with the values);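 active means both replicates at 50% or more, plus weaker picks with an unusually low signal ratio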;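 further: stock transfer was 100 nL into about 20 µL; 0% = negative control wells and 100% = wells with untagged competitor protein; inactives centre near -12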
# An asterisk follows results filed as active; & = joins results of further samples. The list is partial; rates above refer to the full screens.
1. COC(=O)/C=C/c1ccc(C(=O)NCC(=O)N[C@@H](CCC(=O)OC)C(=O)N[C@@H](CC(C)C)C(N)=O)cc1
  HCMV UL50-53 inh = -25
2. c1ncc(CC2CCNCC2)[nH]1
  HCMV UL50-53 inh = -15
3. Cc1nc2ccccc2cc1C(=O)NCc1ccccn1
  HCMV UL50-53 inh = -7
4. C#C[C@@]1(O)CC[C@H]2[C@@H]3CCc4cc(OC)ccc4[C@@H]3CC[C@@]21C
  HCMV UL50-53 inh = -4
5. CCC(=O)NCc1ccc2[nH]c(C)cc2c1
  HCMV UL50-53 inh = -5
6. CCOC(=O)c1csc(NC(=O)COc2ccc(Cl)cc2Cl)n1
  HCMV UL50-53 inh = -4
7. O=c1cc[nH]c(=S)[nH]1
  HCMV UL50-53 inh = 1
8. CCc1cc2c(=O)c(-c3nc4ccccc4s3)coc2cc1O
  HCMV UL50-53 inh = -5
9. CCN1C(=O)c2cccc3c(S(=O)(=O)Nc4ccc(C)cn4)ccc1c23
  HCMV UL50-53 inh = 1
10. CC(=O)N1CCC(C(=O)c2c(C)c(C)c(C)c(C)c2C)CC1
  HCMV UL50-53 inh = -3
11. COc1ccccc1C(=O)NCC(c1cccnc1)N(C)C (stereo not drawn)
  HCMV UL50-53 inh = -16
12. CCCC[C@@H]1C[C@@H]1C(=O)N1CCC(n2cc(C3CCCCC3)nn2)CC1
  HCMV UL50-53 inh = -45
13. O=C(CCOc1ccccc1)Nc1nc2ccc(Br)cc2s1
  HCMV UL50-53 inh = 3
14. O=C(Nc1ccccc1)N[C@H]1C[C@H](C(=O)O)Nc2cc(Cl)cc(Cl)c21
  HCMV UL50-53 inh = -23
15. CC(C)C(=O)Nc1nc(-c2ccccc2)c(C(=O)c2ccccc2)s1
  HCMV UL50-53 inh = -3
16. O=c1nc(-c2ccccc2)c2ccccc2[nH]1
  HCMV UL50-53 inh = -16
17. c1ccc2c(c1)CCCc1cc(NCCN3CCOCC3)nnc1-2
  HCMV UL50-53 inh = -6
18. CCOC(Cn1c(C(C)O)nc2ccccc21)OCC (stereo not drawn)
  HCMV UL50-53 inh = 10&-10
19. CNc1oc(-c2ccc(Cl)cc2)nc1S(=O)(=O)c1ccc(C)cc1
  HCMV UL50-53 inh = 6
20. CN(C)CC(O)Cn1c2ccc(Br)cc2c2cc(Br)ccc21 (stereo not drawn)
  HCMV UL50-53 inh = 7
21. COc1ccc(F)c(-c2cnc(C)[nH]2)c1
  HCMV UL50-53 inh = -8
22. CC1OC(O)C(O)C(O)C1O (stereo not drawn)
  HCMV UL50-53 inh = -14
23. CC(C)CC(CO)Nc1nc(N(C)c2cccc(Cl)c2)c2ncn(C(C)C)c2n1 (stereo not drawn)
  HCMV UL50-53 inh = -17
24. Cc1ccc(C)c(NCC(O)c2ccccc2)c1 (stereo not drawn)
  HCMV UL50-53 inh = -5
25. Cc1cccc(Cn2cnc3ccccc32)c1
  HCMV UL50-53 inh = -19

# The final four compounds of the part before lead into the next.
22. CC1OC(O)C(O)C(O)C1O (stereo not drawn)
  HCMV UL50-53 inh = -14
23. CC(C)CC(CO)Nc1nc(N(C)c2cccc(Cl)c2)c2ncn(C(C)C)c2n1 (stereo not drawn)
  HCMV UL50-53 inh = -17
24. Cc1ccc(C)c(NCC(O)c2ccccc2)c1 (stereo not drawn)
  HCMV UL50-53 inh = -5
25. Cc1cccc(Cn2cnc3ccccc32)c1
  HCMV UL50-53 inh = -19
26. CN1CCN(C(=O)/C=C/c2cccs2)CC1
  HCMV UL50-53 inh = -27
27. CCc1c(C#N)c(N)nc(SCC#N)c1C#N
  HCMV UL50-53 inh = -17
28. CC(C)Oc1ccc(C(=O)NC(CNC(=O)CN(C)C)Cc2ccc(-c3cn4cccc(C(C)O)c4n3)cc2)cc1Cl (stereo not drawn)
  HCMV UL50-53 inh = -2
29. O=C(O)CC(C1CC=CCC1)N1Cc2ccccc2C1=O (stereo not drawn)
  HCMV UL50-53 inh = 2
30. CCC(CC)C(=O)NCCc1cc2c(C)ccc(C)c2[nH]c1=O
  HCMV UL50-53 inh = -4
31. CC1CN(CC(O)COCCC23CC4CC(CC(C4)C2)C3)CC(C)O1 (stereo not drawn)
  HCMV UL50-53 inh = -12
32. CC1(O)CCOC(=O)C1 (stereo not drawn)
  HCMV UL50-53 inh = -10
33. O=C(Nc1ncc(Cc2cc(Cl)ccc2Cl)s1)C1CCCO1 (stereo not drawn)
  HCMV UL50-53 inh = -8
34. CN1CCN(c2nc(-c3ccccc3)c3ccccc3n2)CC1
  HCMV UL50-53 inh = -14
35. CCN1CCN(Cc2ccc(NC(=O)c3cc(NC(=O)c4cnnc5ccccc45)cc(OC)c3)cc2C(F)(F)F)CC1
  HCMV UL50-53 inh = -48
36. COc1cc2ncnc(Nc3ccc(Cl)cc3F)c2cc1OC
  HCMV UL50-53 inh = -2&-18
37. CCCCCCCCCC(=O)NC(CN1CCOCC1)C(O)c1ccccc1 (stereo not drawn)
  HCMV UL50-53 inh = -9&-9
38. Clc1ccc(/C=C/c2cc(Cl)cc(Cl)c2)cc1
  HCMV UL50-53 inh = -17&-17
39. CC(NC(=O)C(c1ccccc1)c1ccccc1)C(=O)O (stereo not drawn)
  HCMV UL50-53 inh = -14
40. CC1CN(C(=O)c2cccc(Cl)c2)CCN1C(=O)c1cccc(Cl)c1 (stereo not drawn)
  HCMV UL50-53 inh = 1
41. CCOC(=O)c1ccc(NC(=O)C23CCC(C)(C(=O)C2)C3(C)C)cc1 (stereo not drawn)
  HCMV UL50-53 inh = -6
42. COc1ccc(CC2c3cc(OC)c(OC)cc3CC[N@+]2(C)CCC(=O)OCCCCCOC(=O)CC[N@@+]2(C)CCc3cc(OC)c(OC)cc3C2Cc2ccc(OC)c(OC)c2)cc1OC (stereo partly drawn)
  HCMV UL50-53 inh = -1
43. Cc1ccc2c(c1)C(=O)[C@]1(O)CCN(c3ccccc3)C1=N2
  HCMV UL50-53 inh = -34&-6&-6
44. Cc1nn(-c2ccccc2)c(C)c1/C=N/N1CCN(Cc2ccccc2)CC1
  HCMV UL50-53 inh = 3
45. CCCCn1nnnc1NC(=O)NC1CCN(Cc2ccncc2)CC1
  HCMV UL50-53 inh = 6
46. CCOC(=O)Nc1cc(-c2ccc(C)c(NS(C)(=O)=O)c2)nn2c(C)nnc12
  HCMV UL50-53 inh = -88
47. CCOc1ccc(OCC)c(S(=O)(=O)N2CCCCC2)c1
  HCMV UL50-53 inh = 9
48. O=C(Nc1ccc(N2CCC(C(F)(F)F)CC2)nc1)c1ccc(OC(F)(F)F)cc1
  HCMV UL50-53 inh = -1

# In another format: entries from further up
cpd	mol	HCMV UL50-53 inh
41	CCOC(=O)c1ccc(NC(=O)C23CCC(C)(C(=O)C2)C3(C)C)cc1 (stereo not drawn)	-6
42	COc1ccc(CC2c3cc(OC)c(OC)cc3CC[N@+]2(C)CCC(=O)OCCCCCOC(=O)CC[N@@+]2(C)CCc3cc(OC)c(OC)cc3C2Cc2ccc(OC)c(OC)c2)cc1OC (stereo partly drawn)	-1
43	Cc1ccc2c(c1)C(=O)[C@]1(O)CCN(c3ccccc3)C1=N2	-34&-6&-6
44	Cc1nn(-c2ccccc2)c(C)c1/C=N/N1CCN(Cc2ccccc2)CC1	3
45	CCCCn1nnnc1NC(=O)NC1CCN(Cc2ccncc2)CC1	6

# Some of the entries so far, with tabs:
No.	SMILES	HCMV UL50-53 inh
1	COC(=O)/C=C/c1ccc(C(=O)NCC(=O)N[C@@H](CCC(=O)OC)C(=O)N[C@@H](CC(C)C)C(N)=O)cc1	-25
39	CC(NC(=O)C(c1ccccc1)c1ccccc1)C(=O)O (stereo not drawn)	-14
